Compound activity: PubChem BioAssay, Johns Hopkins Ion Channel Center
KCNQ2 pot: potentiators of rat KCNQ2 potassium channel; Potassium voltage-gated channel subfamily KQT member 2 (Rattus norvegicus), O88943; CHO-K1 KCNQ2, FluxOR thallium flux fluorescence; active compounds read high; B-score at 10 µM; 310,000 tested, 0.54% active;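 active = fluorescence ratio B-score at least 3 SD of library B-scores, with initial fluorescence B-score within 3 SD, cut at about 5.3 in these data; same plate scores as AID 2156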;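 note: B-score of peak minus minimum over baseline fluorescence ratio after K+ and Tl+ stimulus; positive B-score means potentiation of KCNQ2 with more thallium influx and brighter signal; only the inactives scoring about 0 or higher are listed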
Target sequence (O88943 whole entry, looked up): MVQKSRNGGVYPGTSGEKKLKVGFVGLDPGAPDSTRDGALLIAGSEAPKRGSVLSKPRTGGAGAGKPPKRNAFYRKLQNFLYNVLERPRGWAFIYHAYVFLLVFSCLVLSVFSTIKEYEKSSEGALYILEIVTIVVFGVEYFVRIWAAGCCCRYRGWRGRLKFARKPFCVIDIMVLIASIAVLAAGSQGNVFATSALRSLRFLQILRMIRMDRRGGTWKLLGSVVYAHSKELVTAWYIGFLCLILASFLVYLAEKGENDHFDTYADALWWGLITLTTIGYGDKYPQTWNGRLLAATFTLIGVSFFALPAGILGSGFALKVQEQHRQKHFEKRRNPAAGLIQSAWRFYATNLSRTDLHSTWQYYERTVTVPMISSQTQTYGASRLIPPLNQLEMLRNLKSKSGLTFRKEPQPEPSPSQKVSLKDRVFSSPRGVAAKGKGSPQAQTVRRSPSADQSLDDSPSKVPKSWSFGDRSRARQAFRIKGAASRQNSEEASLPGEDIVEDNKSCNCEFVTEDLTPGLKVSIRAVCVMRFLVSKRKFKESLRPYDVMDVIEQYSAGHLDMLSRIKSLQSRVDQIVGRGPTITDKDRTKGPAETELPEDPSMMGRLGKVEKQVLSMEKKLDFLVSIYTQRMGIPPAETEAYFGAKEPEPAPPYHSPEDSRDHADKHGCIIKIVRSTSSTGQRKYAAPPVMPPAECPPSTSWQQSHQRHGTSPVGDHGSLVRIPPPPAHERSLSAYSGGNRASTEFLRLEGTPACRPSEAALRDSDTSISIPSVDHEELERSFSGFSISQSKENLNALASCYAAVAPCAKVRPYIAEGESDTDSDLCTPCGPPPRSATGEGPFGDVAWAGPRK
KCNQ2 pot baseline: also measured in KCNQ2 pot; calls as there; B-score; compound at 10 µM; measured here: initial fluorescence intensity artifact check;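 brightness before thallium and not channel activity; 0 = typical well and far values either way flag optical interference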
An asterisk follows results filed as active. This is a subset. The share of hits here may be higher or lower than overall.

mol	KCNQ2 pot baseline	KCNQ2 pot
CN(C)S(=O)(=O)n1cc(/C=C(\NC(=O)c2ccccc2)C(=O)N2CCOCC2)c2ccccc21	-0.63	0.9
Cc1csc(NC(=O)C(NS(=O)(=O)c2ccc(Br)s2)c2ccccc2)n1 (configuration not stated)	0.46	0.53
CC1=C(C)CC(C(=O)NCc2c(F)cccc2Cl)C(C(=O)O)C1 (configuration not stated)	1.2	0.51
CCOC(=O)CNC1CC(=O)N(c2cccc(Cl)c2)C1=O (configuration not stated)	-0.7	1.2
COC(=O)CCSCC(=O)Nc1ccc(S(=O)(=O)N2CCOCC2)cc1OC	1	1.2
CC(C)OC(=O)C1CC(C)(O)C(=O)C(C(=O)OC(C)C)C1c1ccc([N+](=O)[O-])cc1 (configuration not stated)	0	0.97
COc1ccc(NC(=O)CCSc2cc(C)c3ccccc3n2)cc1	-0.24	0.11
O=C(NCc1ccco1)/C(=C\c1cccs1)NC(=O)c1ccsc1	-0.81	0.57

mol	KCNQ2 pot baseline	KCNQ2 pot
Cc1cccc(C(=O)O/N=C2\CCCc3ccccc32)c1	-0.2	0.57
COc1cc2nc(C3CCC3)n(NC(=O)C3CCCC(OC)C3)c(=O)c2cc1OC (configuration not stated)	1.7	0.61
O=C(NNC(=O)c1ccc[nH]1)Nc1cccc(C(F)(F)F)c1	-0.48	0.79
Cc1ccccc1NC(=O)c1ccc(-n2cncn2)nc1	-0.71	2.9
c1ccc(Cn2c(Sc3nnnn3-c3ccccc3)nnc2-c2ccccc2)cc1	0.62	3.5
C=CCC(C#Cc1ccc(C)cc1)N(CC)CC (configuration not stated)	-2.5	0.01
COc1ccc(NC(=O)Cn2c(NCC(C)O)nc3ccccc32)cc1Cl (configuration not stated)	-0.51	1.1
CN1C(=O)/C(=C\c2cccc(OCc3ccccc3)c2)SC1=S	-0.02	1.1

mol	KCNQ2 pot baseline	KCNQ2 pot
O=C(Cn1nc(Cl)nc1Cl)Nc1ccccc1	0.02	0.82
Cc1cc(C)cc(C(=O)NC(CC(N)=O)c2ccc(NCCN3CCCC3)c([N+](=O)[O-])c2)c1 (configuration not stated)	-0.72	0.67
O=C(CCS(=O)(=O)c1ccc(Cl)cc1)NCCC1=CCCCC1	3	0.99
CC(C)(C)OC(=O)NNC(=S)NC1CCCCC1	0.02	0.75
O=C1/C(=C\c2cccnc2)SC(=S)N1C1CCS(=O)(=O)C1 (configuration not stated)	1	0.67
N#Cc1nc(Cc2cccc3ccccc23)oc1NCCN1CCOCC1	-0.1	1.4
CCOc1ccc(S(=O)(=O)N2CCCCC2)cc1NC(=O)CN1C(=O)NC(CC)(c2ccccc2)C1=O (configuration not stated)	-0.02	0.66
O=C(NNc1ncnc2sccc12)c1ccc(Cl)cc1	-0.66	1.2

mol	KCNQ2 pot baseline	KCNQ2 pot
Cn1c(SCC(=O)c2ccc(O)cc2O)nnc1-c1ccccc1	1.2	0.79
Cc1c(CC(=O)O)c(=O)oc2cc3oc4c(c3cc12)CCCC4	0.93	1.6
COc1ccc(NC(=O)CCC(=O)Nc2nnc(C(F)(F)F)s2)c(OC)c1	0.43	0.32
NC(=O)C1=C[C@H](c2ccc(C(F)(F)F)cc2)C[C@H](OCc2ccc(CO)cc2)O1	-0.38	1.9
Cc1ccc(-c2nc3sc4c(c3c(=O)n2N)CCCC4)cc1	-1.1	0.01
COc1ccc(CC(=O)O/N=C(\N)c2ccc(Br)cc2)cc1OC	1.7	1.6
COc1ccc(CNS(=O)(=O)c2cn(C)c(=O)n(C)c2=O)cc1	-0.95	0.28
COc1ccc(/C(N)=N/OC(=O)CCCc2ccccc2)cc1	0.87	0.13

mol	KCNQ2 pot baseline	KCNQ2 pot
CN(C)C(=O)COc1ccc2c3c(c(=O)oc2c1)CCCC3	-0.28	1.2
CCn1cc([N+](=O)[O-])c(C(=O)Nc2ccc(Cn3nc(C)cc3C)cc2)n1	-0.04	0.51
CCN(CCC(=O)Nc1cc(OC)cc(OC)c1)Cc1ccccc1	0.69	0.84
CCN(CC)CCOC(=O)C1(C2CCCCC2)CCCCC1	0.88	0.1
O=Cc1cccc(OCc2cccc3ccccc23)c1	0.11	0.06
COc1ccc(OCC(O)CN2CCN(Cc3ccc4c(c3)OCO4)CC2)cc1 (configuration not stated)	0.63	0.39
Cc1ccc(Nc2nc(NCCO)nc3c2cnn3C)cc1Cl	-0.94	0.06
CC(=O)N(C)c1ccc(N=Nc2c(C)[nH]n(-c3ccccc3)c2=O)cc1	-2	1.2

Reformatted: 2 of the compounds above.
O=C(NNc1ncnc2sccc12)c1ccc(Cl)cc1
  KCNQ2 pot baseline: -0.66; KCNQ2 pot: 1.2

Cn1c(SCC(=O)c2ccc(O)cc2O)nnc1-c1ccccc1
  KCNQ2 pot baseline: 1.2; KCNQ2 pot: 0.79

Continuation.
mol	KCNQ2 pot baseline	KCNQ2 pot
Cc1cc(NC(=O)C2CCCC2)n(-c2nc3ccccc3[nH]2)n1	-0.26	0.64
COC(=O)c1ccsc1NC(=O)CS(=O)(=O)c1ccccc1	-1.1	1.1
O=C(CSc1nnnn1C1CCCCC1)N1CCOCC1	-0.42	0.02
Cc1cc(C)n(C(=O)c2cccc(S(=O)(=O)N3CCCC3)c2)n1	0.24	0.31
Cc1c(-n2c(SCC(=O)C(C)(C)C)nc3ccccc3c2=O)c(=O)n(-c2ccccc2)n1C	-0.2	0.29
O=C(c1ccccc1)N1N=C(C(F)(F)F)CC1(O)c1ccccc1 (configuration not stated)	-1.3	0.05
COc1cc(C2c3[nH]c4ccccc4c3C[C@H]3C(=O)N(C4CC4)CC(=O)N23)ccc1OC(C)C (some centres not stated)	-0.97	1
O=C(CN1CCN(S(=O)(=O)c2ccc(F)cc2)CC1)NC1CC1	-0.37	0.62

mol	KCNQ2 pot baseline	KCNQ2 pot
CCCC1=NN2C(=N)/C(=C\c3cc(C)n(-c4cccc(C)c4)c3C)C(=O)N=C2S1	-1.1	0.01
CCN1CCN(CC(=O)N2CCCC(C(=O)c3ccc(Oc4ccccc4)cc3)C2)CC1 (configuration not stated)	-0.56	0.69
Cc1cc(C=NCCO)c(C)n1-c1cc(Cl)ccc1Cl	2	0.01
O=C(Cn1c(SCC(=O)N2CCc3ccccc32)nc2ccccc21)NC1CCCC1	-1.5	1.5
CCn1c(C)nc2cc(C(N)=O)ccc21	-0.67	1.8
C/C(=N\NC(=O)c1ccccc1O)c1ccc(NC(=O)c2ccccc2)cc1	-1.5	1.3
CC(C)c1ccc(OCC(O)Cn2cnc3ccccc32)cc1 (configuration not stated)	-1.1	0.37
CN1CCc2c(sc3c2C(=O)NC(c2ccc(-c4ccc(Cl)cc4)o2)N3)C1 (configuration not stated)	-0.25	0.18

mol	KCNQ2 pot baseline	KCNQ2 pot
CC(C)NC(=O)c1onc(CSc2cccc(Cl)c2)c1C(=O)O	-0.05	1.3
CCOc1ccc(C)cc1S(=O)(=O)n1nc(C)cc1C	0.03	0.75
O=C(CSc1nnc(-c2ccco2)n1Cc1ccccc1)NC(=O)NCc1ccccc1	0.4	2.4
Nc1nc(CN2CCN(Cc3ccccc3)CC2)nc(Nc2ccc3c(c2)OCCO3)n1	0.91	0.33
O=C(c1ccc(Cl)s1)N1CCCC1	0.61	0.36
O=c1c(Cl)c(NS(=O)(=O)c2ccccc2)cnn1-c1ccccc1	-0.76	0.45
O=C(Nc1nc(-c2cccnc2)cs1)c1cccc([N+](=O)[O-])c1	-0.43	0.74
COc1ccccc1C(=O)NNC(=O)c1ccc(NC(=O)C(C)C)cc1	0.56	0.35

mol	KCNQ2 pot baseline	KCNQ2 pot
CCOc1cc(/C=N/NC(=O)C(=O)NCc2cccnc2)ccc1O	0.6	1.2
COc1ccc(N2C(=O)C(Cl)=C(Nc3ccccc3O)C2=O)cc1	0.04	1.2
O=C(c1cc(-c2ccc(Cl)s2)nc2ccccc12)N1CCCC1	-2.6	0.14
Cc1ccc(-c2nc(N)sc2C)cc1	0.65	0.97
Cc1cc2cc3c(cc2nc1SCC(=O)N1CCOCC1)OCO3	0	1.3
O=C(COC(=O)c1cccc(S(=O)(=O)NCc2ccccc2)c1)NCC1CCCO1 (configuration not stated)	-0.09	1.1
COc1cccc(C(=O)NC(=S)N2c3ccccc3CC2C)c1OC (configuration not stated)	0.53	0.66
COc1ccc(-c2coc3cc(OC(=O)N4CCOCC4)ccc3c2=O)cc1	0.22	0.11

mol	KCNQ2 pot baseline	KCNQ2 pot
COc1cc(CC(=O)NCCCc2ccccc2)cc(OC)c1OC	0.92	0.32
COc1ccc(OCCCSc2ncccn2)cc1	-1	0.31
COc1ccc(CCNC(=O)/C=C/c2ccc(C)cc2)cc1OC	-0.85	0.03
O=C(CCN1C(=O)C2C3C=CC(C3)C2C1=O)NCC1CCCO1 (configuration not stated)	0.54	0.39
C/C=C/c1ccc(OCCCCNCc2ccco2)c(OC)c1	-1	0.67
CCCCN(C)C1CCN(C(=S)Nc2cccc(SC)c2)CC1	-1.3	2.1
Fc1cccc(Nc2nc(Cl)nc(Cl)n2)c1	-4.2	0.66
CCc1nnc(NC(=O)Cn2nc(-c3ccccc3OC)ccc2=O)s1	0.44	1.7

mol	KCNQ2 pot baseline	KCNQ2 pot
Cc1cc([N+](=O)[O-])nn1CC(=O)Nc1ccccn1	0.11	1.3
CCCCn1c(=O)nc2n(-c3ccccc3C)c3ccccc3cc-2c1=O	-1.5	0.44
N=c1ccn2c(n1)OC1C(O)C(CO)OC12 (configuration not stated)	-0.12	0.67
O=C(Nc1ccccc1C(F)(F)F)c1ccc(F)c(S(=O)(=O)N2CCOCC2)c1	-0.46	1.2
Fc1ccccc1-n1[nH]nnc1=S	0.01	0.9
Cc1cc(C)c(S(=O)(=O)Nn2cnnc2)c(C)c1	1.9	0.2
Cn1c(=O)c2c(nc(NCCNC(=O)c3ccco3)n2Cc2ccccc2)n(C)c1=O	-0.5	0.56
O=c1/c(=C\c2ccc(O)cc2)sc2nc(-c3ccccc3)c(-c3ccccc3)n12	1.7	0.01

mol	KCNQ2 pot baseline	KCNQ2 pot
CCC(c1nnnn1CC1CCCO1)N(CCCO)Cc1cc2cccc(C)c2[nH]c1=O (configuration not stated)	0.29	0.39
COc1ccc(NC(=O)c2[nH]c(C)c(C(C)=O)c2C)cc1	-0.01	1.7
CCc1ccc2c(c1)C1(SC(NC(C)=O)=NN1C(C)=O)C(=O)N2CC (configuration not stated)	-0.48	0.23
Cc1cc(NC(=O)CSc2nnc(-c3cccc(Cl)c3)o2)no1	3	0.4
CCCCc1nc2ccccc2c(NC(=O)CN2CCCC2)c1CCC	0.17	2.6
Cc1nnc(N/N=C\c2ccc(-c3ccccc3[N+](=O)[O-])o2)n1N	-0.45	0.2
CCN1C(=O)[C@@H]2[C@@H](c3ccc(-c4ccc(OC)cc4)c(OC)c3)N3CCC[C@@]3(C(=O)OC)[C@@H]2C1=O	-0.46	0.58
O=C(c1c[nH]c(C(=O)N2CCN(c3ccccc3F)CC2)c1)c1cccc(Cl)c1Cl	-0.69	1

mol	KCNQ2 pot baseline	KCNQ2 pot
NS(=O)(=O)c1ccc(CNC(=O)C23CC4CC(CC(C4)C2)C3)cc1	1.5	1.3
CCN(CC(=O)NC1CCS(=O)(=O)C1)S(=O)(=O)c1cc([N+](=O)[O-])ccc1C (configuration not stated)	-0.77	0.82
Cc1ccc2[nH]c(=O)c(CN(Cc3cccnc3)C(=O)c3ccncc3)cc2c1	0.03	0.13
CC(=O)N1CCc2cc(S(=O)(=O)CCC(=O)NCc3ccc(Cl)cc3)ccc21	-2.1	0.26
CC(=O)Nc1ccccc1NC(=O)C/C(C)=N/NC(=O)C(=O)Nc1cccc(Cl)c1C	-0.74	0.7
CN1CCC(=O)N([C@H](CN=[N+]=[N-])Cc2ccccc2)CC1	-1.9	1.4
CC(C)CNS(=O)(=O)c1ccc(OCC(=O)NCC2CCCO2)c(Cl)c1 (configuration not stated)	-0.73	0.41
CCOC(=O)c1nnc2cc(-c3ccc(Br)cc3)nn2c1C	-1.4	1.3

mol	KCNQ2 pot baseline	KCNQ2 pot
CCCCC(=O)Nc1ccc(NC(=O)c2ccccc2OC)cn1	-0.02	1.1
COC(=O)c1ccc(N2CCOCC2)c(NC(=O)Nc2cccc(OC)c2)c1	-0.8	1.5
CCOC(CNC(=O)c1ccc(CNC(=O)c2ccc(OC)c(OC)c2)cc1)OCC	1.6	1.7
COc1nc(C)nc(NC(=O)NS(=O)(=O)c2ccc(C)cc2)n1	-1	0.08
CC(C(=O)NCc1ccc2c(c1)OCO2)N1c2cccc3cccc(c23)S1(=O)=O (configuration not stated)	-0.69	0.22
COc1cccc(-c2nc(CS(=O)(=O)CC(=O)NCCCOC(C)C)c(C)o2)c1	-0.31	0.03
Cc1cc(C)n(CCCNCC(O)c2ccccc2)n1 (configuration not stated)	0.73	0.26
O=C(NC(=S)N1CCCCC1)c1cccs1	-0.58	2.6

mol	KCNQ2 pot baseline	KCNQ2 pot
O=C(O)Cn1nc(C(F)(F)F)c2c1CCCCC2	0.23	0.24
O=C(CC(=O)c1ccccc1)Nc1ccccn1	0.07	0.7
CCCCCn1c(N)c(C#N)c2nc3ccccc3nc21	0.85	0.32
Cc1cc2ncn(C3CC(=O)N(Cc4ccc(N5CCCC5=O)cc4)C3=O)c2cc1C (configuration not stated)	0.33	3.9
O=C(NCc1ccccc1)C1(C(F)(F)F)C/C(=C/CCO)CCCO1 (configuration not stated)	0.18	0.21

Part of the list above in order of SMILES length, smallest number first:
mol	KCNQ2 pot baseline	KCNQ2 pot
O=C(NC(=S)N1CCCCC1)c1cccs1	-0.58	2.6
CCCCCn1c(N)c(C#N)c2nc3ccccc3nc21	0.85	0.32
Cc1cc2ncn(C3CC(=O)N(Cc4ccc(N5CCCC5=O)cc4)C3=O)c2cc1C (configuration not stated)	0.33	3.9
